# Source: PubChem BioAssay
# MARV entry inh: inhibitors of Marburg virus binding or cell entry. 300,000 compounds, 1.8% hits. Potency, µM (series often up to 37.8 µM), for inactives: at the highest dose activity change, negative = inhibition, most hits filed as inhibitors. Marburg virus pseudotyped entry inhibition, cell reporter; control for the full effect not named in the record; about a third of the inactives were read at about 46 µM. AID 540276; active = well fitted inhibition curve with a large enough effect; inconclusive = small, poorly fitted or top-dose-only effect, or effect the other way; inactive = flat fitted curve, though single readings scatter; tested in HEK293 cells; about a fifth of its hits are not listed in these tables; note: % is set by controls: 0 for no effect and ±100 for the full control effect; luciferase read-out
# Cruzain inh noDet: cruzain (T. cruzi) inhibition without detergent. P25779. purified cruzain, Z-FR-AMC fluorescence, no detergent. Potency, µM, for the others: max response, negative = inhibition, most hits filed as inhibitors. 200,000 compounds, 2.3% hits. AID 1476;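 note: plate controls were enzyme without inhibitor for no effect and buffer without enzyme for full effect; nearly all actives have a fitted effect of over 40% in size; top concentration of the series not given in the record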
# Target sequence (P25779 123-467 limits assumed): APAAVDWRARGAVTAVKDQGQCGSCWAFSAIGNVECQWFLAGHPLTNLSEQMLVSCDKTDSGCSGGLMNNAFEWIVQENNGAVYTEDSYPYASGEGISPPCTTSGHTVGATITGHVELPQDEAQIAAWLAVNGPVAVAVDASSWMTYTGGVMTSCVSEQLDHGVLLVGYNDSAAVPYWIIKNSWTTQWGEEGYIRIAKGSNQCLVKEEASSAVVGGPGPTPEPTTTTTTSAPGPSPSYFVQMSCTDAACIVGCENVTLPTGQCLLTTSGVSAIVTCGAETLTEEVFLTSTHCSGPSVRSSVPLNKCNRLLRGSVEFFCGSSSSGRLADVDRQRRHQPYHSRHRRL
#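 Detergent-free condition (0.00005% Triton X-100) in acetate buffer pH 5.5 with DTT. 1.5 nM enzyme and compound were pre-mixed 15 min, then 2 uM Z-FR-AMC substrate added; reaction progress from fluorescence change between first and third reads (60 s).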
# Cruzain Triton: inhibitors of Trypanosoma cruzi cruzain with detergent; purified cruzain, Z-FR-AMC fluorescence, 0.01% Triton; Potency, µM, without a hit: max response, negative = inhibition, hits mostly inhibitors; 200,000 compounds, 0.43% hits; AID 1478;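 note: plate controls were neutral wells for no effect and buffer without enzyme for full effect; nearly all actives have a fitted effect of over 40% in size; top concentration of the series not given in the record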
#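 Enzyme 1.5 nM, Z-FR-AMC 2 uM, NaOAc 100 mM pH 5.5, DTT 5 mM, Triton X-100 0.01%; 15 min RT compound preincubation; kinetic ex360/em450, 60 s delta.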
# 2A StopGo: FMDV 2A StopGo reporter, luciferase signal. human cells with a luciferase reporter of 2A StopGo recoding; control for the full effect not named in the record. Potency, µM (highest dose often 57.9 µM), for the others: top-dose signal change, negative = less light. 410,000 compounds, 1.2% hits; active = well fitted falling curve with a large enough effect; inconclusive = small, poorly fitted or top-dose-only effect; inactive = no such curve, though single readings can be large or run the other way; tested in HEK293T cells; note: % is set by controls: 0 for no effect and ±100 for the full control effect; nearly all actives have a fitted effect of over 45% in size; luciferase light after 4 h
# NS1 inh: inhibitors of influenza NS1 protein function; S. cerevisiae slowed by influenza A NS1, growth recovery by OD600; Potency, µM (titrated, usually from 46.1 µM), for the others: at the top dose activity, positive = more growth; 270,000 compounds, 0.4% hits; active means well fitted rising curve with a large enough effect; inconclusive means small, poorly fitted or top-dose-only effect; inactive means no such curve, though single readings can be large or run the other way; note: nearly all actives have a fitted effect of over 50% in size
#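 Growth recovery, yeast-based: influenza A NS1 expressed in S. cerevisiae causes slow growth, and suppressors are detected by OD600. The parent strain without NS1 is used as positive control.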
# LASV entry inh: inhibitors of Lassa virus binding or cell entry; 300,000 compounds, 1.2% hits; Lassa virus pseudotype entry inhibition, cell reporter; control for the full effect not named in the record; Potency, µM (top dose mostly 37.9 µM), for the others: at the highest dose activity change, negative = inhibition, hits mostly inhibitors; active means well fitted inhibition curve with a large enough effect; inconclusive means small, poorly fitted or top-dose-only effect, or effect the other way; inactive means flat fitted curve, though single readings scatter; tested in HEK293 cells; note: % is set by controls: 0 for no effect and ±100 for the full control effect; nearly all actives have a fitted effect of over 50% in size; luciferase read-out
# SARS PLP yeast: blocks SARS-CoV papain-like protease in a yeast assay. 330,000 compounds, 0.19% hits. S. cerevisiae expressing SARS-CoV PLpro, growth rescue; control for the full effect not named in the record. Potency, µM (top dose mostly 32.9 µM), for the others: at the highest dose activity, positive = growth rescue; active means well fitted rising curve with a large enough effect; inconclusive means small, poorly fitted or top-dose-only effect; inactive means no such curve, though single readings can be large or run the other way; note: 0% is about no effect; nearly all actives have a fitted effect of over 55% in size; growth read by luminescence after 48 h
# RE007 growth inh: less growth of the S. pombe RE007 Vpr strain | S. pombe RE007 Vpr strain, BacTiter-Glo ATP luminescence, 24 h; control for the full effect not named in the record | Potency, µM (doses to about 92.2 µM), for the others: at the highest dose activity change, negative = less growth | 360,000 compounds, 0.21% hits; active = well fitted falling curve with a large enough effect; inconclusive = small, poorly fitted or top-dose-only effect; inactive = no such curve, though single readings can be large or run the other way;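 note: % is set by controls: 0 for no effect and ±100 for the full control effect; nearly all actives have a fitted effect of over 50% in size; the assay follows cell death caused by Vpr and the record does not say whether a fall means rescue or toxicity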
#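 Fission yeast RE007 carrying one integrated HIV-1 vpr copy, seeded at OD 0.01 in PMG+AL medium with 23 nL pinned compound. Grown 24 h at 30 degrees; viability read by BacTiter-Glo luminescence after 5 min.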
# The depositor's hits bear a star; ? = inconclusive; · = not tested or not shown; & = joins results of further samples; [ ] = remark or other dose. Unless noted, calls come from the whole dose curve; as a rule, active = well fitted curve in the direction sought with a large enough effect; inconclusive = small, poorly fitted or top-dose-only effect, or another doubt; inactive = no such curve, though single readings can be large; an effect the other way counts as inactive or inconclusive. Potency is the fitted concentration of half-maximal effect. Rows are unselected. About 4.7% of those tested had a hit in this group.
SMILES,MARV entry inh,Cruzain inh noDet,Cruzain Triton,2A StopGo,NS1 inh,LASV entry inh,SARS PLP yeast,RE007 growth inh
COc1cccc2cc(-c3cn4c(n3)sc3cc(F)ccc34)c(=O)oc12,·,4.2%,0.0%,8.3%,·,?,·,·
COc1ccc(/C=N/c2c(-c3ccc(OC)cc3)nc3n2CCS3)cc1,-4.8%,?,-7.5%,41.9%[activator],17.0%,3.5%,-10.0%,-23.6%
Cc1ccc2c(c1)N(C)/C(=C/c1cccc[n+]1C)S2,?,·,·,-22.2%,-5.5%,?,-2.8%,?
CC(C)(C)n1ncc2c(=O)n(CC(=O)OCc3ccccc3)cnc21,?,7.0%,-0.5%,14.1µM*,-35.1%,?,-4.4%,-7.7%
COc1ccc(C2c3cc(OC)c(OC)cc3CC(=O)N2c2ccc(C)cc2)cc1 (stereo not given),-21.8%[46.1 µM],17.5%,-5.9%,-29.7%,·,?,·,·
Cc1cccnc1NS(=O)(=O)c1cccc([N+](=O)[O-])c1,?,-1.8%,-1.0%,17.6%,9.5%,-1.6%,-8.5%,-9.4%
COc1cc(NC(=O)CSc2nnnn2Cc2ccc3c(c2)OCO3)cc(OC)c1,5.8%[46.1 µM],-4.9%,-3.6%,-11.7%,9.4%,2.3%,-0.1%,-9.6%
CCC(C)Nc1nc(OC(C(F)(F)F)C(F)(F)F)nc(OC(C(F)(F)F)C(F)(F)F)n1 (stereo not given),-1.9%,-1.4%,-7.1%,-15.9%,7.3%,-2.0%,-10.7%,2.2%
CCC(=O)Nc1ccc(NC(=O)c2ccco2)c(OC)c1,17.0%,-4.9%,1.7%,72.6%[activator],-4.0%,?,-2.0%,5.3%
CCOc1ccc(-c2ccc(SC)nn2)cc1,1.26µM*,·,·,-78.4%,·,2.82µM*,-4.6%,?
COc1cccc(NC(=S)NCc2ccc(F)cc2)c1,4.6%,·,·,60.6%[activator],11.9%,25.6%,12.0%,-3.1%
CN1CCN(C(=O)CCN2C(=O)c3ccccc3C2=O)CC1,·,·,·,1.5%,4.8%,·,0.4%,2.4%
COc1cc(NC(=O)C(=O)Nc2ccc3nc4n(c(=O)c3c2)CCCCC4)cc(OC)c1OC,22.5%&22.5%[46.1 µM],4.8%,-2.0%,?,5.5%,7.2%[46.1 µM],1.0%,24.5%
S=C(NCC1CCCO1)Nc1ccccc1 (stereo not given),-0.3%,·,·,30.5%[activator],4.9%,29.8%[46.1 µM],0.2%,8.2%
CCOC(=O)COc1ccc(C(c2c(C)[nH][nH]c2=O)c2c(C)[nH][nH]c2=O)cc1,3.7%[46.1 µM],·,·,-19.6%,5.0%,14.0%[46.1 µM],-3.2%,-2.9%
O=C(COC(=O)c1cnccn1)N=c1sccn1Cc1ccccc1Cl,-3.8%,·,·,-20.1%,·,0.4%,-7.7%,6.4%
CCN1CCc2[nH]c3ccccc3c2C1,1.7%,·,·,-3.7%,4.3%,·,0.6%,0.1%
CC(=O)N1c2ccc(S(=O)(=O)N(C)CC(=O)Nc3cccc(C)c3)cc2CC1C (stereo not given),-15.1%[46.1 µM],·,·,0.0%,-8.0%,-17.4%[46.1 µM],1.9%,-8.1%
CCOC(=O)N1CCN(C(=O)NC23CC4CC(CC(C4)C2)C3)CC1,-16.6%,3.3%,7.4%,-10.6%,-0.5%,-12.9%,-1.0%,-0.1%
C[C@@H]1CCC[C@@]2(O[C@H](CCO)C[C@@H](O)[C@@H]2O)O1,2.8%,7.6%,1.8%,-12.8%,?,-5.5%,20.9%,0.7%
O=C(CC1CC2CCC1C2)NCCc1ccc(Cl)cc1 (stereo not given),0.7%[46.1 µM],·,·,15.3%,-22.9%,27.9%,-4.7%,18.2%
CCOC(=O)NNC1CC(=O)N(c2ccccc2)C1=O (stereo not given),15.3%,5.1%,-1.7%,-15.6%,1.4%,7.1%,1.0%,2.3%
Cc1ccc(S(=O)(=O)N2CCCC(C(=O)N3CCCc4ccccc43)C2)cc1 (stereo not given),-16.8%,2.2%,1.3%,?,2.1%,?,2.1%,-7.7%
COCCCNC(=O)c1sc2nc(C)c(C(=O)Nc3ccc(C)cc3C)c(-c3ccc(Br)cc3)c2c1N,?,?,-5.3%,-29.2%,·,-25.0%[46.1 µM],·,·
O=C(c1cnc2n(c1=O)CCS2)N1CCN(c2ccc(Cl)c(Cl)c2)CC1,-18.2%,?,-9.7%,?,0.4%,-5.5%,-2.7%,-6.8%

# Grouped by structure: the compounds so far with an aryl thioether with sulfur outside any ring (2)
SMILES,MARV entry inh,Cruzain inh noDet,Cruzain Triton,2A StopGo,NS1 inh,LASV entry inh,SARS PLP yeast,RE007 growth inh
COc1cc(NC(=O)CSc2nnnn2Cc2ccc3c(c2)OCO3)cc(OC)c1,5.8%[46.1 µM],-4.9%,-3.6%,-11.7%,9.4%,2.3%,-0.1%,-9.6%
CCOc1ccc(-c2ccc(SC)nn2)cc1,1.26µM*,·,·,-78.4%,·,2.82µM*,-4.6%,?

# The listing continues:
SMILES,MARV entry inh,Cruzain inh noDet,Cruzain Triton,2A StopGo,NS1 inh,LASV entry inh,SARS PLP yeast,RE007 growth inh
Cc1cc2ncc(-c3ccccc3)nc2cc1C,·,·,·,-8.9%,-12.9%,·,0.2%,-13.8%
Cc1nn(Cc2ccccc2Cl)c(Cl)c1C(=O)O,-3.8%[46.1 µM],·,·,-24.0%,·,28.8%[46.1 µM],6.9%,3.8%
N#Cc1ccc(-c2ccco2)nc1SCc1ccccc1,-18.7%,0.0%,-12.3%,-12.1%,5.8%,-10.8%,-1.4%,-1.7%
Cc1ccccc1NC(=O)OCc1cccnc1Oc1ccc(Cl)cc1,-26.2%[46.1 µM],·,·,-20.4%,·,4.7%,-6.9%,7.2%
Cc1ccccc1OCC(=O)N/N=C/c1ccccn1,-7.0%,·,·,8.3%,·,-11.5%,-1.0%,2.0%
Cc1ccc(-c2nnc(SC(C)C(=O)NCC3CCCO3)nc2-c2ccc(C)cc2)cc1 (stereo not given),-11.9%,·,·,-4.5%,·,-29.9%[46.1 µM],3.2%,1.4%
COc1ccc(OC)c(C2CC(=O)N3CN(c4ccc(C)c(Cl)c4)CSC3=C2C#N)c1 (stereo not given),-2.1%,-21.2%,-4.2%,0.3%,-3.0%,·,-1.2%,-7.6%
Cc1cccc(N2CCN(C(=O)c3cc4c(=O)oc5ccccc5c4s3)CC2)c1C,?,-4.9%,-0.5%,3.9%,·,14.9%[46.1 µM],·,·
O=[N+]([O-])/C=C1\C=CC=CN1Cc1ccc(Cl)cc1,-17.9%[46.1 µM],·,·,-4.1%,1.5%,-7.1%[46.1 µM],1.1%,4.1%
O=C(c1ccco1)N1CCCC(c2nc(-c3ccc(S(=O)(=O)NCc4ccccc4)cc3)no2)C1 (stereo not given),?,-23.1%,-7.0%,?,3.0%,?,14.9%,-7.0%
COc1ccc(N(C)C(=O)CN(C)S(=O)(=O)c2ccc3c(c2)c(=O)n(C)c(=O)n3C)c(OC)c1,·,·,·,-10.7%,0.0%,·,1.0%,-3.2%
O=C(O)c1ccc(Cl)c(NC(=S)NC(=O)c2ccccc2[N+](=O)[O-])c1,19.1%[14.2 µM],·,·,-15.0%,·,1.4%,0.0%,8.7%
CCCCCn1c(CN2CCN(Cc3ccccc3)CC2)nc2c1c(=O)[nH]c(=O)n2C,11.2%,-1.4%,1.6%,0.0%,-2.8%,3.8%,-0.8%,-19.0%
N#Cc1cc(-c2ccccc2)cn(Cc2c(Cl)cccc2Cl)c1=O,-19.5%,0.2%,-19.0%,-8.2%,-2.6%,3.8%,1.5%,-3.8%
COc1cccc(C2C(C(N)=O)=C(C)Nc3nc(CCCO)nn32)c1 (stereo not given),·,-8.6%,2.2%,0.9%&0.5%,4.0%,5.0%[46.1 µM],2.4%,4.8%
COc1ccc(CCN2C(=O)C3C(C2=O)C2C=CC3C23CC3)cc1OC (stereo not given),-5.1%[46.1 µM],·,·,-10.2%,·,?,-4.4%,6.9%
COc1ccc(-c2nn(-c3ccccc3)cc2C(=O)Nc2cccc(C(=O)O)c2)cc1[N+](=O)[O-],·,·,·,-14.7%,10.0%,·,28.4%,8.8%
CCn1cc(CN(C)S(=O)(=O)c2ccc3ccccc3c2)c(C)n1,?,7.6%,-5.7%,?,-4.2%,?,-0.8%,10.5%
Cc1nc(NC2=NCN(Cc3cccnc3)CN2)nc2ccccc12,-0.3%&-0.3%,-15.2%,-6.6%,1.0%,0.8%,1.9%,2.7%,-15.8%
CCS(=O)(=O)N1CCC(C(=O)Nc2ccc(C(C)=O)cc2)CC1,·,·,·,13.6%,?,·,2.8%,-10.9%
CCOc1ccc(NC(=O)CSc2oc(-c3ccco3)nc2S(=O)(=O)c2ccc(C)cc2)cc1,-16.1%[46.1 µM],9.9%,-3.4%,?,·,-1.4%[46.1 µM],·,·
O=S(=O)(Nc1ccon1)c1ccc(Br)s1,·,·,·,-19.5%,10.9%,·,-3.2%,-0.3%
C=CCN(c1ccccc1)S(=O)(=O)c1ccc(Cl)c(C(=O)OCC(=O)N(C)C2CCS(=O)(=O)C2)c1 (stereo not given),4.5%,·,·,-14.0%,·,?,-1.7%,4.6%

# Full records as entered above.
# COc1ccc(CCN2C(=O)C3C(C2=O)C2C=CC3C23CC3)cc1OC (stereo not given) reads MARV entry inh: -5.1%[46.1 µM]; Cruzain inh noDet: ·; Cruzain Triton: ·; 2A StopGo: -10.2%; NS1 inh: ·; LASV entry inh: ?; SARS PLP yeast: -4.4%; RE007 growth inh: 6.9%
# Cc1ccccc1NC(=O)OCc1cccnc1Oc1ccc(Cl)cc1 reads MARV entry inh: -26.2%[46.1 µM]; Cruzain inh noDet: ·; Cruzain Triton: ·; 2A StopGo: -20.4%; NS1 inh: ·; LASV entry inh: 4.7%; SARS PLP yeast: -6.9%; RE007 growth inh: 7.2%
